# Screens from PubChem BioAssay.
# rRNA inh HTS = reduced GFP signal of wild-type E. coli, primary screen, bacterial rRNA inhibitor project, GFP/RFP fluorescence, OD600, single point; AID 720706, 2013; actives 1.6% (n = 350,000); E. coli WT GFP vs humanized-ribosome RFP mutants, 24 h; hits give low values; DMSO median 0, no signal -100; GFP signal change (wild-type ribosome), % (test concentration not listed);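 active = significant combined selectivity score with lowered wild-type GFP, culture density cut under 30%, mutant RFP and density less affected; inactive = any of these conditions unmet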; also: one replicate is shown; some compounds called inactive have numbers as strong as hits
# rRNA inh HTS OD600 = recorded beside rRNA inh HTS, whose call it bears; OD600 change, %; measured here: OD600 growth;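 optical density of the mix in the first replicate; 0 = DMSO median and -100 = no signal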
# rRNA inh HTS RFP = second read-out of rRNA inh HTS, no call of its own (marks repeat the call); RFP signal change, %; measured here: RFP humanized mutant strains;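 first replicate; 0 = DMSO median and -100 = no signal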
# * = called active by the depositor; & = joins results of further samples. A portion of the library; the hit share may differ from the screen's.
No. | Molecule | rRNA inh HTS | rRNA inh HTS OD600 | rRNA inh HTS RFP
1 | O=C([C@H]1N[C@H]2c3ccc(-c4ccc(F)cc4)c(=O)n3C[C@H]2[C@@H]1CO)N1CCOCC1 | 3 | 7 | -1.9
2 | O=C(C[C@@H]1C=C[C@@H](NC(=O)Nc2ccc(C(F)(F)F)cc2)[C@@H](CO)O1)NCc1cccc(F)c1 | -1 | 3 | -0.8
3 | O=C(C1CCC1)N1CC2(C1)[C@H](c1ccccc1)[C@H](CO)N2Cc1ccc(Cl)cc1 | -55 | -76 | -11
4 | O=C(c1ccc2c(c1)OCO2)N1CC(=O)N2[C@H](CO)[C@H](c3ccc(C#CC4CCCC4)cc3)[C@@H]2C1 | -11 | -48 | 30
5 | Cc1cc(OC(=O)Nc2ccccc2)ccc1Cl | 0 | 15 | -4.1
6 | COc1ccc(CN(C)C[C@H]2OCCCC[C@H](C)Oc3ccc(NC(=O)Cc4ccccc4)cc3C(=O)N([C@H](C)CO)C[C@@H]2C)cc1 | -1 | 0 | -1.7
7 | C[C@@H]1CN([C@@H](C)CO)C(=O)c2cc(C#CC(C)(C)O)cnc2O[C@@H]1CN(C)C(=O)CC1CC1 | 4 | -5 | -0.8
8 | CN(C)C(=O)C[C@@H]1C=C[C@@H](NC(=O)NC2CCCCC2)[C@H](CO)O1 | -1 | 3 | -0.4
9 | CCc1nc2ccc(C(=O)NC(C)(C)C)cn2c1N(CC)Cc1cccc(Br)c1 | -52 | -75 | -14
10 | O=C(Cc1ccccn1)N1CC2(C1)[C@H](c1ccccc1)[C@H](CO)N2C(=O)c1ccncc1 | 4 | -1 | 3.9
11 | CN1C(=O)c2cc(NC(=O)c3ccc(F)c(F)c3)ccc2OC[C@H]2O[C@@H](CC(=O)O)CC[C@H]21 | -4 | -3 | -0.3
12 | C[C@H](CO)N1C[C@H](C)[C@@H](CN(C)CC2CCCCC2)Oc2ccc(NC(=O)Nc3ccccc3)cc2CC1=O | 5 | -20 | 6.9
13 | COC(=O)C1=C(C)N(Cc2cccc(C(F)(F)F)c2)C(=NCc2ccc3c(c2)OCO3)NC1c1cccc(C(F)(F)F)c1 (stereo unspecified) | -54 | -76 | -14
14 | C[C@H](CO)N1C[C@H](C)[C@H](CN(C)Cc2ccc3c(c2)OCO3)Oc2ccc(NC(=O)Nc3ccc4c(c3)OCO4)cc2CC1=O | -4 | -15 | 6.6
15 | COc1cc(CN2C[C@@H]3N[C@H](C2)C3c2ccc(-c3cccc(OC)c3)cc2)cc(OC)c1 (stereo partly specified) | -61&-62 | -73&-75 | -18&-17
16 | COc1ccc(C(=O)NCC(=O)OCC(=O)c2c[nH]c3ccccc23)cc1 | -4 | -17 | 2.1
17 | CO[C@@H]1CN(C)C(=O)c2cc(NC(=O)C3CCOCC3)ccc2OC[C@@H](C)N(Cc2cccnc2)C[C@H]1C | 4 | 5 | -1.1
18 | COCC(=O)Nc1ccc2c(c1)OC[C@H](C)N(C(=O)c1ccncc1)C[C@@H](C)[C@@H](OC)CN(C)C2=O | 4 | 2 | -3.3
19 | C[C@H]1CN([C@@H](C)CO)C(=O)Cc2cc(NC(=O)Nc3ccc(F)cc3)ccc2O[C@H]1CN(C)S(=O)(=O)c1ccc(Cl)cc1 | 3 | -8 | 4.2
20 | COc1ccc(CN(C)C[C@H]2Oc3ccc(NC(=O)CCN4CCOCC4)cc3CC(=O)N([C@@H](C)CO)C[C@@H]2C)cc1 | 1 | 4 | 0.9
21 | C[C@H](CO)N1C[C@H](C)[C@@H](CN(C)Cc2ccc(C(=O)O)cc2)Oc2ccc(NC(=O)Cc3cn(C)c4ccccc34)cc2CC1=O | 2 | 7 | 0.7
22 | C[C@H]1CN([C@@H](C)CO)C(=O)c2ccccc2-c2ccccc2CO[C@H]1CN(C)CC1CC1 | -4 | -8 | -2.6
23 | O=C(Nc1cc(Cl)cc(Cl)c1)N[C@H]1CC[C@H](CCNS(=O)(=O)c2cccc(F)c2)O[C@@H]1CO | -59 | -80 | -14
24 | OC[C@H]1[C@@H](c2ccccc2)C2(CN(CCC(F)(F)F)C2)N1Cc1cncnc1 | 2 | 5 | -1.2
25 | CCCC(=O)Nc1ccc2c(c1)OC[C@@H](C)N(Cc1ccncc1)C[C@@H](C)[C@H](OC)CN(C)C2=O | -2 | -5 | -2.7
26 | COc1ccc(-c2[nH][nH]c(=O)c2NC(=O)c2ccc([N+](=O)[O-])cc2)cc1 | 24 | 12 | 0.2
27 | Cc1cc(C)c(C)c(S(=O)(=O)N2CCNC(=O)C2)c1C | 3 | 11 | -3.1
28 | N#C[C@@H]1[C@H](c2ccccc2)[C@H](CO)N1S(=O)(=O)c1ccc(-c2ccccc2)cc1 | 0 | -16 | -1.5
29 | CO[C@H]1CN(C)C(=O)c2ccc(NC(=O)C3CC3)cc2OC[C@@H](C)N(C(=O)c2ccccc2)C[C@H]1C | -2 | 5 | -0.7
30 | CO[C@@H]1CN(C)C(=O)c2cc(NC(=O)c3ccccc3)ccc2OC[C@H](C)N(C)C[C@@H]1C | 2 | 2 | -0.9
31 | Cc1cc(C(=O)Nc2cccc3c2O[C@@H](CN(C)S(=O)(=O)c2ccc(F)cc2)[C@H](C)CN([C@@H](C)CO)C3=O)n(C)n1 | 1 | -2 | -4.2
32 | CCCNC(=O)Nc1ccc2c(c1)C(=O)N(C)[C@H]1CC[C@H](CC(=O)NC)O[C@H]1CO2 | 3 | 3 | -1.1
33 | C[C@H]1CCCCO[C@H](CN(C)C(=O)CCC(F)(F)F)[C@@H](C)CN([C@@H](C)CO)C(=O)c2cc(NC(=O)CCC(F)(F)F)ccc2O1 | 1 | -1 | -0.6
34 | CC(C)NC(=O)Nc1ccc2c(c1)C(=O)N([C@H](C)CO)C[C@@H](C)[C@@H](CN(C)C(=O)CCC(F)(F)F)OCCCC[C@@H](C)O2 | 0 | 3 | 0.3
35 | CC(=O)c1cccc(-c2ccnc3c2CC(C(=O)Nc2ccc(Cl)c(C(F)(F)F)c2)O3)c1 (stereo unspecified) | -3 | -29 | 21
36 | Cc1cc2nc(C3CCCCC3)c(Cc3cccc(Cl)c3)n2c(C)c1Br | 11 | 13 | 7.8
37 | N#C[C@H]1[C@@H](c2ccccc2-c2cccc(F)c2)[C@@H](CO)N1C(=O)C1CCC1 | -3 | -2 | -0.6
38 | O=C(OCc1cn([C@@H]2C[C@H](c3ccc(Cl)cc3)N(CC3CCCCC3)C[C@H]2O)nn1)c1ccccc1 | 16 | 16 | 0.3
39 | COc1ccccc1-c1ccc([C@H]2[C@@H](C#N)N[C@@H]2CO)cc1 | 0 | -5 | -5.2
40 | O=C(c1ccccc1)N1CCN(c2cc(-c3ccccc3)nc3cc(-c4cccc(Cl)c4)nn23)CC1 | 10 | 18 | 7.4
41 | O=C(C[C@H]1CC[C@H]2[C@@H](COC[C@H](O)CN2CC2CCOCC2)O1)NCC1CCCCC1 | 5 | 5 | -0.8
42 | CC1(C(=O)NS(=O)(=O)C2CC2)CCCN(C(=O)c2ccc(F)c(Cl)c2)C1 (stereo unspecified) | 4 | 1 | -2.1
43 | CO[C@@H]1CN(C)C(=O)c2ccc(NC(=O)c3cc(C)on3)cc2OC[C@H](C)N(C)C[C@H]1C | 0 | 3 | -1.1
44 | Cc1ccc(S(=O)(=O)N2[C@H](C(C)C)[C@H]3[C@H]4C(=O)N(c5ccccc5)C(=O)[C@H]4CC(=O)[C@H]3[C@@H]2c2ccccc2)cc1 | -1 | 6 | 0.0
45 | COc1cc(C=NN2CCCCC2)cc(OC)c1OC | 2 | 0 | -0.2
46 | COc1ccc2c3c(n(C)c2c1)[C@H](CO)N(Cc1ccccc1OC)CC31CN(C)C1 | 3 | 3 | 0.6
47 | O=C(C[C@H]1CC[C@@H]2[C@H](COC[C@H](O)CN2Cc2ccccc2F)O1)N1CCc2ccccc2C1 | -11 | -19 | 3.7
48 | O=C(C[C@@H]1CC[C@@H]2[C@H](COC[C@H](O)CN2Cc2ccc(Cl)cc2)O1)NCc1ccccc1Cl | -57 | -78 | -15
49 | O=C(Nc1ccc(C(F)(F)F)cc1)N1[C@@H]2CNC[C@H]1C2c1ccc(-c2ccccc2)cc1 (stereo partly specified) | -58&-60 | -77&-76 | -13&-7.8
50 | C[C@@H]1CCCCO[C@@H](CN(C)Cc2ccc(C(=O)O)cc2)[C@H](C)CN([C@H](C)CO)C(=O)c2cc(NS(C)(=O)=O)ccc2O1 | 1 | 5 | -2.6
51 | CN1c2ccc(-c3cccc(F)c3)cc2[C@@H]2[C@@H](CCN2C(=O)C2CC2)[C@H]1CO | -24 | -48 | 27
52 | COCCNC(=O)C1(C)CCCN(C(=O)c2ccc(C#N)cc2)C1 (stereo unspecified) | 19 | 14 | 3.7
53 | C[C@@H]1CCCCO[C@H](CN(C)C(=O)NC2CCCCC2)[C@@H](C)CN([C@@H](C)CO)C(=O)c2cc(NS(=O)(=O)c3cccs3)ccc2O1 | -6 | -8 | 3.8
54 | CN(C)C(=O)C[C@H]1CC[C@@H]2[C@@H](COc3ccc(NC(=O)Nc4cccc(Cl)c4)cc3C(=O)N2C)O1 | -12 | -19 | 1.6
55 | CCCNC(=O)[C@@H]1[C@@H](CO)[C@@H]2Cn3c(ccc(/C=C/c4ccccc4)c3=O)[C@H]1N2C(C)=O | -3 | -6 | -1.7
56 | C[C@H](CO)N1C[C@H](C)[C@H](CN(C)C(=O)Nc2ccc(F)cc2)Oc2ncc(C#CCN(C)C)cc2C1=O | 6 | 21 | -4.0
57 | CC(=O)Nc1cnc(-c2ccccc2C(F)(F)F)cn1 | 7 | 19 | 0.6
58 | C[C@@H]1CN([C@@H](C)CO)C(=O)CCCn2cc(nn2)CO[C@@H]1CN(C)Cc1ccc(C(=O)O)cc1 | 3 | 9 | -0.9
59 | COC(=O)C[C@@H]1C[C@H]2c3cc(NC(=O)c4ccc5c(c4)OCO5)ccc3O[C@H]2[C@@H](CO)O1 | -1 | 10 | -0.4
60 | O=C(C[C@H]1CC[C@@H]2[C@H](COC[C@@H](O)CN2CC2CCOCC2)O1)NCc1ccc(Cl)cc1 | 3 | 22 | 0.0

# Among those listed so far, four have a cyano group:
No. | Molecule | rRNA inh HTS | rRNA inh HTS OD600 | rRNA inh HTS RFP
28 | N#C[C@@H]1[C@H](c2ccccc2)[C@H](CO)N1S(=O)(=O)c1ccc(-c2ccccc2)cc1 | 0 | -16 | -1.5
37 | N#C[C@H]1[C@@H](c2ccccc2-c2cccc(F)c2)[C@@H](CO)N1C(=O)C1CCC1 | -3 | -2 | -0.6
39 | COc1ccccc1-c1ccc([C@H]2[C@@H](C#N)N[C@@H]2CO)cc1 | 0 | -5 | -5.2
52 | COCCNC(=O)C1(C)CCCN(C(=O)c2ccc(C#N)cc2)C1 (stereo unspecified) | 19 | 14 | 3.7

# Going on with the list.
No. | Molecule | rRNA inh HTS | rRNA inh HTS OD600 | rRNA inh HTS RFP
61 | C[C@H]1CN([C@@H](C)CO)C(=O)c2cc(NC(=O)CCN3CCOCC3)ccc2O[C@H]1CN(C)C(=O)NC1CCCCC1 | 1 | 2 | -1.3
62 | N#Cc1cccnc1N1CCN(C(=O)c2[nH]c(C(F)(F)F)nc2-c2ccccc2)CC1 | 6 | 12 | 4.1
63 | COc1ccc(S(=O)(=O)Nc2ccc3c(c2)CC(=O)N([C@@H](C)CO)C[C@@H](C)[C@H](CN(C)Cc2ccc4c(c2)OCO4)O3)cc1 | -10 | -36 | 4.3
64 | CCCC(=O)N1CC2(CN(Cc3nccs3)C2)c2c([nH]c3cc(OC)ccc23)[C@@H]1CO | 4 | 0 | -0.2
65 | C[C@H](CO)N1C[C@H](C)[C@@H](CN(C)Cc2ccc(-c3ccccc3)cc2)OCc2cnnn2CCCC1=O | 7&-2 | 4&-11 | 1.4&6.9
66 | Cc1ccc(S(=O)(=O)N(C)C[C@@H]2Oc3ccc(NS(=O)(=O)c4cccs4)cc3C(=O)N([C@H](C)CO)C[C@@H]2C)cc1 | 1 | 1 | -1.1
67 | Cc1noc(C)c1NC(=O)N(C)C[C@@H]1Oc2ccc(NS(=O)(=O)c3cccs3)cc2C(=O)N([C@H](C)CO)C[C@H]1C | 4 | 10 | -0.9
68 | O=C(c1cccs1)N1C[C@@H](n2cc(-c3ccc(F)cc3)nn2)[C@H](O)C[C@@H]1c1ccccc1 | -1 | -4 | 1.3
69 | COc1cccc(NC(=O)N2CC(=O)N3[C@H](C2)[C@H](c2ccc(C#CC4CCCCC4)cc2)[C@@H]3CO)c1 | 3 | 0 | 0.5
70 | COc1ccc(C[C@H]2CCn3nncc3COC[C@@H](c3ccccc3)NC2=O)cc1 | 0 | 5 | -0.3
71 | O=C(CCN1CCCCC1)N[C@@H]1CC[C@@H](CC(=O)N2CCC(Cc3ccccc3)CC2)O[C@@H]1CO | -1 | -6 | 2.1
72 | CCOC(=O)[C@]12CCC=C1N(Cc1ccco1)C(=O)[C@H](CC(=O)NCCC(C)C)C2 | 15 | 18 | 2.6
73 | COc1ccc(NC(=O)N(C)C[C@H]2Oc3ccc(NC(=O)Cc4cn(C)c5ccccc45)cc3C(=O)N([C@@H](C)CO)C[C@H]2C)cc1 | -1 | 0 | 1.7
74 | Cc1cccc(S(=O)(=O)N2C[C@H](O)COC[C@H]3O[C@H](CC(=O)Nc4ccc(-c5ccccc5)cc4)CC[C@@H]32)c1 | -2 | -22 | 17
75 | COc1ccccc1-c1ccc2c(c1)[C@H]1[C@H](CCN1C(=O)C1CC1)[C@H](CO)N2 | 0 | -10 | 2.8
76 | O=C(Nc1cc(Cl)ccc1N1CCOCC1)c1ccc2c(c1)OCO2 | -1 | -4 | -0.7
77 | C[C@H](CO)N1C[C@H](C)[C@@H](CN(C)C(=O)Nc2ccccc2)OCCCC[C@H](C)Oc2ccc(NC(=O)c3ccncc3)cc2C1=O | -3 | 6 | -0.1
78 | COCc1cn(CC[C@H]2CC[C@@H](NC(=O)CCN3CCCCC3)[C@@H](CO)O2)nn1 | 3 | 5 | -1.5
79 | CO[C@H]1CC[C@H]2CCN(C)C(=O)[C@@H](C)N(C)C(=O)c3cc(C#N)ccc3OC[C@@H]1O2 | 3 | 11 | -6.0
